# A488 autofl – compound fluoresces in the A488 spectral region | max dye equivalency, M | compound autofluorescence, A488 spectral region, dye equivalency; active compounds read high | 0.1% of 59,000 active; active = above 10 nM dye equivalent; inconclusive = 1 to 10 nM; inactive = 1 nM or less; about half of its hits are not listed in these tables;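 note: highest value over a series up to 38 µM; compound alone in buffer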
#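 Read-out: relative fluorescence at 480/540 nm, expressed as Alexa 488 dye-equivalent concentration from a six-point A488 standard included per plate. Conditions: 100 mM Tris, pH 8.0; 15 min incubation, room temperature.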
# TSHR agonist – agonists of human thyroid stimulating hormone receptor; P16473; HEK293-CNG-TSHR cells (CNG channel as cAMP sensor), membrane potential dye, cAMP; Potency, µM (top dose mostly 57.1 µM), inactives show top-dose activation, most hits filed as activators; 0.48% of 73,000 active; active = well fitted activation curve of enough size with the parental cells flat; inconclusive = any curve in the parental cells; inactive = parental cells flat and receptor cells flat or falling; note: potency is the fitted concentration of half-maximal effect; % of control where 0% means no effect; weak receptor curves with flat parental cells got no call and are not listed
# Target sequence (P16473 whole entry, looked up): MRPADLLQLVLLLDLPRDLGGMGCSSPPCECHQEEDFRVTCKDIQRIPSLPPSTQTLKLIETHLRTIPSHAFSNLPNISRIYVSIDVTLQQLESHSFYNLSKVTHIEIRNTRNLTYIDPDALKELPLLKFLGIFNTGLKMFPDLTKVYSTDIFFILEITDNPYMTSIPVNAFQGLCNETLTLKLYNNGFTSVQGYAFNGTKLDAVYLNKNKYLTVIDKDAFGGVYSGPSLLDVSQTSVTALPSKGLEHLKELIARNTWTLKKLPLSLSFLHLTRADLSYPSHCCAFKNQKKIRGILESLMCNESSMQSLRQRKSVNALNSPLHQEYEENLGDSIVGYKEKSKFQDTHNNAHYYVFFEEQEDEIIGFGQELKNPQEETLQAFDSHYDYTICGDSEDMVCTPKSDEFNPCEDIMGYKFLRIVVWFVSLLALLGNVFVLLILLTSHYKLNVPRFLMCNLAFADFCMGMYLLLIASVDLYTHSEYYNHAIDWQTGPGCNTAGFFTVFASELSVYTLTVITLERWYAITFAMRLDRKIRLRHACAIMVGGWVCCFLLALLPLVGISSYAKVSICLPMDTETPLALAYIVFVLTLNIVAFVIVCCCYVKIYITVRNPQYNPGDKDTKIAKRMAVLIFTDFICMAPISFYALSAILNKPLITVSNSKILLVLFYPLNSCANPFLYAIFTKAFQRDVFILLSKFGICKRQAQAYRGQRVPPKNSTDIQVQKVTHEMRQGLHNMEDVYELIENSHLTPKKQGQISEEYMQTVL
#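 HEK 293 cells stably expressing TSHR and a cAMP-gated CNG channel; parental CNG-only cells as counterscreen. Cells preloaded 60 min with membrane potential dye plus 100 uM RO 20-1724, then compound 30 min; fluorescence read at 590 nm.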
# A647 fluor – A647 region autofluorescence. Compound fluorescence, A647 channel (570/671 nm), Tris buffer. max dye-equivalent concentration, M. 59,000 tested, under 10 active. AID 592; active means above 1 µM dye equivalent; inconclusive means 0.1 to 1 µM; inactive means 0.1 µM or less;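 note: values scaled relative to a standard on each plate; highest value over a series up to 38 µM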
#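 Buffer was dispensed, compounds and Alexa 647 standards were pin-transferred, and plates sat 15 min at room temperature. Intensity at 570/671 nm was then converted to dye-equivalent concentration using the plate's A647 standard curve.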
# AID923 – qHTS Assay for Allosteric/Competitive Inhibitors of Caspase-1: Spectroscopic Profiling in AFC Spectral Region; 1.1% of 75,000 active; Potency, µM (titrated, usually from 57.5 µM), without a hit: top-dose fluorescence increase, hits mostly activators; compound fluorescence, AFC spectral region (405/520 nm); almost no hit is shown here; active = well fitted activation curve with a large enough effect; inconclusive = small, poorly fitted or top-dose-only effect;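 note: potency is the fitted concentration of half-maximal effect; 0% is about no effect; scaled to a free AFC standard on each plate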
#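 Titrations up to 57 uM read every 20 sec for 3 min (405/520 nm) with 50 nM caspase 1 and 5 uM Ac-WEHD-AFC, pH 7.5 HEPES buffer. Fluorescence-vs-time intercept gave baseline, scaled against on-plate AFC standard.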
# Resorufin fluor – compound fluoresces in the resorufin spectral region; Compound fluorescence, resorufin region 547/598 nm, buffer; active compounds read high; max dye-equivalent concentration, M; 0.04% of 59,000 active; AID 588; active = above 10 nM dye equivalent; inconclusive = 1 to 10 nM; inactive = 1 nM or less; a few of its hits are not listed in these tables; note: highest value over a series up to 38 µM
#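 Compounds in 100 mM Tris, pH 8.0, incubated 15 min at room temperature, then fluorescence read at 547 nm excitation/598 nm emission. Signal converted to dye-equivalent concentration via an on-plate six-point resorufin standard curve, per compound concentration.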
# Starred values were filed as active, the others as inactive; i = inactive; ? = inconclusive; / = not tested or not shown; & = joins results of further samples; [ ] = another dose, or the depositor's remark.
# Values run as follows: A488 autofl | TSHR agonist | A647 fluor | AID923 | Resorufin fluor
CCOC(=O)C1(Cc2ccc(O)cc2)NC(c2ccccc2F)C2C(=O)N(C)C(=O)C21 (stereo not given)
  i | ? | 1.5e-09 | -2.7% | i
O=C(NCc1cccs1)C1CCN(S(=O)(=O)c2ccc3c(c2)OCCO3)CC1
  i | ? | 6.27e-08 | 1.6% | i
C=CCn1nnnc1SCC(=O)Nc1ccccc1C(=O)OC
  i | 17.7% | 3.76e-08 | 0.4% | i
COCCCNC(=O)c1ccc(Cn2c(=O)[nH]c3ccccc3c2=O)cc1
  / | -4.3% | / | -0.6% | /
CN(C)CCNc1nc2c(c(=O)[nH]c(=O)n2C)n1CC(O)COc1ccc(Cl)cc1Cl (stereo not given)
  i | -22.2% | 2.25e-08 | 0.2% | i
c1coc(CNc2nc(N3CCCCC3)nc3ccccc23)c1
  i | ? | 1.81e-08 | -1.1% | i
O=C(Oc1ccc(-c2cn3c(n2)SCC3)cc1)c1ccccc1
  i | 5.4% | 1e-09 | 6.0% | i
CC1=C(C(N)=O)C(c2ccc(Cl)cc2)NC(=O)N1 (stereo not given)
  i | -16.7% | 2.02e-08 | -1.4% | i
CCOc1cc(C2Nc3ccccc3C(=O)N2c2ccccc2OC)ccc1O (stereo not given)
  i | / | 2.4e-09 | / | i
CCOC(=O)C1CCCN(C2CC(=O)N(c3ccc(C)c(C)c3)C2=O)C1 (stereo not given)
  i | 0.0% | 2.32e-08 | -0.3% | i
N#CC1(P(=O)(c2ccccc2)c2ccccc2)CC1
  i | / | 1e-09 | / | i
Cc1ccnc(-n2sc3ccccc3c2=O)n1
  i | -7.6% | 2.34e-08 | 1.9% | i
CCN1C(=O)C(C)S/C1=N\S(=O)(=O)c1ccc(Cl)s1 (stereo not given)
  i | 11.0% | 2.63e-08 | -1.7% | i
Cc1cccc(NC(=O)CSc2nnc(-c3ccccc3C)o2)c1
  i | / | 1e-09 | 0.9% | i
COC(=O)[C@@]1(Cc2ccc(OC)cc2)[C@H]2c3cc(C(=O)N4CCCC4)n(CCSCCO)c3C[C@H]2CN1C(=O)c1ccccc1
  / | ? | / | -1.9% | /
Cn1c(=O)c2c(ncn2CCCNC2=CC(C)(C)CC(=O)C2)n(C)c1=O
  i | 5.4% | 3.6e-08 | 0.3% | i
CN(C)c1ccc(C2N([C@H](C#N)c3ccc(N(C)C)cc3)CCCN2[C@@H](C#N)c2ccc(N(C)C)cc2)cc1 (stereo not given in full)
  i | 1.2%[11.4 µM] | 1.2e-09 | -1.0%[11.5 µM] | i
OC[C@@H](O)[C@@H](O)[C@@H](O)[C@@H](O)c1nc2ccc(Cl)cc2[nH]1
  i | 5.2%[11.4 µM] | 4.18e-08 | 2.4%[11.5 µM] | i
COc1ccc(-c2cc(=O)[nH]c(NCc3ccccc3)n2)cc1
  i | -5.4% | 3.9e-09 | -1.6% | i
CCCCn1ccc(=O)c2c(C(F)(F)F)nccc21
  / | ? | / | -0.4% | /
CCOc1ccc(Nc2cc(=O)n(C)c(=O)n2C)cc1
  / | -4.3% | / | -1.6% | /
CCOCCOc1nc2c(c(=O)n(C)c(=O)n2C)n1CCc1ccccc1
  i | ? | 1.5e-08 | -0.2% | i
O=C(NCCCn1ccnc1)c1cccnc1
  i | / | 3.57e-08 | / | i
CCC(=O)N1c2ccccc2NC2=C(C(=O)CCC2)C1c1ccc(N(C)C)cc1 (stereo not given)
  i | 13.1% | 1.7e-09 | 0.7% | i
COCCNC(=O)c1nn(-c2cc(OC)cc(OC)c2)c(=O)c2ccccc12
  i | 0.6%[11.4 µM] | 3.8e-09 | -0.3% | i
CC(C)CCNC(=O)NC(=O)COc1ccccc1C#N
  i | -1.4% | 1e-09 | 0.3% | i
COc1cc(C(=O)N2CCN(Cc3ccccc3C(F)(F)F)CC2)cc(OC)c1OC
  / | 4.4% | / | -1.5% | /
Cc1ccsc1C(=O)OCC(=O)Nc1sccc1C(N)=O
  i | -1.6% | 4.1e-09 | -2.6% | i
CCOc1cc(CO)ccc1OCC(=O)N1CCCCC1
  i | 5.4% | 5.6e-09 | 0.0% | i
CCc1ccccc1NC(=O)CSc1nc2ccccc2n1CC(=O)N(C)C
  i | 2.9% | 8.5e-09 | 0.5% | i
COc1ccc(CNc2ccnc(-c3cccc(C#N)c3)n2)c(OC)c1
  i | ? | 1.5e-08 | 5.0% | i
Cc1cc(C(=O)COC(=O)C2COc3ccccc3O2)c(C)n1CC1CCCO1 (stereo not given)
  i | 12.5% | 1e-09 | 0.9% | i
O=C(O)C1CCC(=O)N1Cc1ccccc1Cl (stereo not given)
  i | -1.6%[11.4 µM] | 1.82e-08 | 0.0% | i
CN(C)CCCN1C(=O)C(=O)/C(=C(/O)c2ccncc2)C1c1ccccc1 (stereo not given)
  i | 0.4% | 1e-09 | -1.2% | i
COc1ccc(NCc2nnc(SCC(=O)N3CCCc4ccccc43)o2)cc1
  i | -9.0% | 9.1e-09 | -1.6% | i
CC1CCCN(c2nc3c(c(=O)[nH]c(=O)n3C)n2Cc2ccccc2Cl)C1 (stereo not given)
  / | ? | / | -4.4% | /
CCC(=O)Nc1nc(C)c(C(=O)N2CCCCC2)s1
  i | 0.4% | 1.22e-08 | -0.4% | i
Cc1cc(NC(=O)CC(C)(C)C)nc2c1c(=O)oc1ccccc12
  i | / | 5.1e-09 | 2.2% | i
CC1(C)OC(=O)N(c2cccnc2)C1(C)O (stereo not given)
  i | -3.1% | 1e-09 | 1.9% | i
CN1CCN(c2ncc3ncc(=O)n(C[C@H]4CCCO4)c3n2)CC1
  i | 25.0% | 2.29e-08 | 11.1% | i
Cc1ccc(NC(=O)CN2CCC3(O)CCCCC3C2c2ccc3c(c2)OCO3)c(C)c1 (stereo not given)
  i | ? | 1e-09 | 1.1% | i
CCCCOC(=O)Sc1nc2ccccc2o1
  / | -10.8% | / | -1.1% | /
S=c1nc(C2CCCCC2)[nH][nH]1
  i | -0.3% | 1e-09 | 2.5% | i
O=C(O)CNCCc1ccccc1
  i | ? | 5.5e-09 | -1.7%[11.5 µM] | i
CCSC(N)=Nc1ccc(C(F)(F)F)cc1
  i | 7.1% | 5.21e-08 | -2.2% | i
COc1ccc(OC)c(C(C(=O)NCc2ccco2)N(C(=O)Cn2nnc3ccccc32)C2CC2)c1 (stereo not given)
  i | 17.2% | 1e-09 | 0.6% | i
Cc1cc(S(=O)(=O)Nc2ccccc2C)ccc1F
  i | ? | 5.5e-09 | -0.2% | i
Cc1nn(-c2ccccc2)c2c1C1(C(=O)Nc3ccccc31)N1C(=N2)Sc2ccccc21 (stereo not given)
  i | -7.0% | 1e-09 | 1.1% | i
COc1ccc(S(=O)(=O)Nc2ccc(S(=O)(=O)N3CCCCC3)cc2)cc1
  i | -1.2% | 1.19e-08 | -0.6% | i
C=C1C(=O)C=C2CN(C(=O)c3ccccc3)[C@@](Cc3ccc(OC)cc3)(C(=O)OC)[C@@H]12
  / | ? | / | -8.3% | /

# Carrying on.
# Values run as follows: A488 autofl | TSHR agonist | A647 fluor | AID923 | Resorufin fluor
Cc1onc(-c2c(F)cccc2Cl)c1C(=O)NCc1ccco1
  / | -3.0% | / | 4.3% | /
CS(=O)(=O)N1CCCC(C(=O)N2CCc3ccccc3C2)C1 (stereo not given)
  i | -3.6% | 3.7e-09 | -0.4% | i
COc1ccc(Br)cc1CNC(=O)CCN1C(=O)COc2ccccc21
  i | -1.4% | 1.6e-09 | -2.6% | i
CSc1cccc(-n2c(C)cc(C(N)=O)c2C)c1
  i | ? | 3.74e-08 | -0.8% | i
CCCCCCn1c(CN2CCN(Cc3ccccc3)CC2)nc2c1c(=O)n(C)c(=O)n2C
  i | ? | 3.85e-08 | -0.2% | i
Clc1ccc(Sc2oc(/C=N/n3cnnc3)cc2Br)cc1
  / | 26.2%[11.4 µM] | / | -1.1% | /
Cc1cccc(NC(=O)c2cc(S(=O)(=O)NCc3ccco3)ccc2F)c1C
  i | 14.9% | 3.9e-09 | -1.9% | i
C=CCn1c2ccccc2c2nnc(SC(CC)C(=O)Nc3nc(C)c(C(=O)OCC)s3)nc21 (stereo not given)
  i | 2.3% | 5.9e-09 | 2.1% | i
CC(C)CC(=O)CN1C(=O)C2(OCCO2)c2ccccc21
  i | 6.7%[11.4 µM] | 7e-09 | 0.5% | i
COc1ccc2[nH]cc(CCNc3cc(-c4ccccc4C)ncn3)c2c1
  i | 7.9% | 1e-09 | 2.1% | i

# A few values from the results shown:
# For TSHR agonist, CCC(=O)Nc1nc(C)c(C(=O)N2CCCCC2)s1 has 0.4%
# For A647 fluor, CCOc1cc(CO)ccc1OCC(=O)N1CCCCC1 has 5.6e-09
# For AID923, CC1=C(C(N)=O)C(c2ccc(Cl)cc2)NC(=O)N1 (stereo not given) has -1.4%

# Following part
# Values run as follows: A488 autofl | TSHR agonist | A647 fluor | AID923 | Resorufin fluor
CC(Sc1nnc(-c2ccc(O)cc2)o1)C(=O)Nc1cccc2ccccc12 (stereo not given)
  i | ? | 1e-09 | -1.7% | i
C/C(NC1CCCC1)=C(/C#N)C(N)=O
  i | -6.0% | 3.31e-08 | -3.4% | i
CC1=C(n2nnc3ccccc32)C(c2ccccc2)C(C#N)=C(N)O1 (stereo not given)
  / | -8.8% | / | 0.3% | /
CCCC[C@@H]1C[C@H]1C(NC(=O)c1ccccc1)c1ccccc1 (stereo not given in full)
  / | ? | / | 0.6% | /
COc1ccccc1NC(=O)N(CCN(C)C)Cc1cc2cc(C)ccc2[nH]c1=O
  i | ? | 1e-09 | -1.9% | i
COCCn1c(NCc2ccc(C)cc2)nc2c1c(=O)[nH]c(=O)n2C
  i | 3.0% | 3.07e-08 | -1.5% | i
Cc1c(C(=O)NCc2ccccn2)sc2nc(-c3ccc(F)cc3)cn12
  i | 18.4% | 8.7e-09 | -0.9% | i
COc1ccc(CC(=O)Nc2c3c(nn2-c2cccc(Cl)c2)CS(=O)(=O)C3)cc1
  i | ? | 8.5e-09 | -1.1% | i
COC(=O)[C@H](C)NC(=O)NCc1ccc(F)cc1
  i | / | 1e-09 | 0.3% | i
COc1ccc(-n2nnnc2SC(C)C(N)=O)cc1 (stereo not given)
  i | -3.4% | 1.61e-08 | -0.2% | i
COC(=O)[C@@H](NC(=O)Nc1ccc(OC)cc1)C(C)C
  i | 0.9% | 2.9e-09 | 0.3% | i
CNc1oc(-c2ccc(OCc3ccccc3)cc2)nc1C#N
  i | 1.0% | 2.96e-08 | -0.5% | i
CC1(C)CN=C(N2CCN(C3=NCC(C)(C)S3)CC2)S1
  i | 8.4% | 2.46e-08 | 0.5% | i
COc1ccc(CNc2oc(COc3ccc(Cl)cc3)nc2C#N)cc1
  i | / | 3.86e-08 | / | i
Cc1ccc(S(=O)(=O)CCc2nnc(NC(=O)C3CCCO3)s2)cc1 (stereo not given)
  i | -5.3% | 1e-09 | -1.3% | i
Cc1noc(C(=O)NCc2ccco2)c1Cl
  / | ? | / | -1.6% | /
O=C1[C@H]2[C@H]3[C@H](O)[C@H](O)C/C(=N/OC[C@@H](O)COCc4ccco4)[C@@H]3CC[C@@H]2C(=O)N1C1CCCCC1
  / | 5.1%[11.4 µM] | / | -0.7%[11.5 µM] | /
COc1ccc(S(=O)(=O)N2CCCC(C(=O)NCc3ccco3)C2)cc1Cl (stereo not given)
  i | 7.3% | 7.1e-09 | -3.0% | i
NC[C@@H]1O[C@H](C23CC4CC(CC(C4)C2)C3)Cc2c1ccc(O)c2O
  i | -11.1%&-5.6% | 4.65e-08 | -1.8%&-2.0% | i
COc1ccc2nc(N)sc2c1
  / | -2.3% | / | 1.1% | /
Cc1nnc(SCc2ccon2)n1-c1ccccc1
  i | -8.1% | 7.39e-08 | -0.5% | i
CC(=O)OC(Cn1nc(C)cc1C)c1ccccc1 (stereo not given)
  i | 8.8% | 2e-09 | 0.3% | i
COc1ccc(-c2cc(-c3cc(F)ccc3O)[nH]n2)cc1OC
  i | 7.8%[11.4 µM] | 3.5e-09 | -1.1% | i

# Bioassay records from PubChem BioAssay.

# Not all compounds are listed; rates above refer to the full screens.
